Source: PubChem
Pol iota inh – DNA polymerase iota (human) inhibition; Pol iota fluorescent replication assay, 10 min; AID 588590; Q9UNA4; Potency, µM (doses to about 115 µM), inactives show at the top dose activity, negative = inhibition, most hits filed as inhibitors; actives 1% (n = 390,000)
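Pol iota at 10 nM preincubated 15 min with compounds at room temperature; reaction started with fluorescent substrate, 50 nM final. Fluorescence read kinetically at 0 and 10 min; buffer-only wells as negative control.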
Pol eta inh – DNA polymerase eta (human) inhibition. recombinant Pol eta, fluorescent DNA replication assay. Potency, µM (top dose mostly 114 µM), for the others: at the top dose activity change, negative = inhibition, hits mostly inhibitors. actives 1.2% (n = 390,000); also: % is scaled to controls: 0 for no effect and ±100 for the full control effect
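Pol eta (10 nM) was preincubated with compounds for 15 min at room temperature, after which fluorescent replication substrate (50 nM final) was added to start the reaction. Fluorescence was read kinetically at 0 and 10 min.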
POLB inh – DNA polymerase beta (human) inhibition | actives 1.3% (n = 340,000) | Pol beta primer extension/strand displacement, fluorescence kinetic | Potency, µM (series often up to 114 µM), for the others: top-dose activity change, negative = inhibition, usual class: inhibitors; also: % is scaled to controls: 0 for no effect and ±100 for the full control effect
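Reaction started by 50 nM substrate onto compound-treated Pol beta (10 nM, 15 min preincubation, room temperature); plates read at 0 min and 10 min. Normalized concentration-effect data fitted by four-parameter Hill equation.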
G9a block – G9a (human) methyltransferase inhibition. Q96KQ7. G9a H3K9 monomethylation, AlphaScreen, 2 h. Potency, µM (titrated, usually from 102 µM), for the others: at the highest dose activity, negative = inhibition, usual class: inhibitors. actives 8.8% (n = 350,000). AID 504332; also: % is scaled to controls: 0 for no effect and ±100 for the full control effect; nearly all actives have a fitted effect of over 75% in size
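G9a (20 nM) preincubated 15 min RT with compounds, then 500 nM biotinylated H3K9 peptide and 20 uM SAM added; 2 h RT reaction. Monomethyl-H3K9 product detected by AlphaScreen with anti-H3K9me1 antibody, streptavidin donor and anti-rabbit IgG acceptor beads.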
Pol kappa inh – blocks human DNA polymerase kappa activity | Q9UBT6 | purified Pol kappa, fluorescent DNA synthesis assay, 10 min | Potency, µM (top dose mostly 107 µM), for the others: at the top dose activity, negative = inhibition, hits mostly inhibitors | actives 0.53% (n = 400,000) | AID 588579; also: % is scaled to controls: 0 for no effect and ±100 for the full control effect
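Here, compound and 10 nM enzyme are combined for 15 min at room temperature; adding 50 nM substrate (final) starts DNA synthesis, tracked by fluorescence at 0 and 10 min against buffer-only wells.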
APE1 inh – APE1 (human) endonuclease inhibition; AID 2517; Potency, µM (series often up to 65.8 µM), without a hit: top-dose activity change, negative = inhibition, hits mostly inhibitors; P27695; recombinant APE1, TAMRA/BHQ-2 abasic DNA cleavage fluorescence; actives 0.35% (n = 350,000);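 also: plate controls were vehicle for no effect and reference inhibitor for full effect; nearly all actives have a fitted effect of over 55% in size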
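Quantitative HTS: incision of a TAMRA/BHQ-2 double-stranded substrate bearing a tetrahydrofuran abasic site by 0.75 nM APE1 raises fluorescence. Substrate 50 nM final, added after 15 min compound preincubation at room temperature; progress as third-minus-first kinetic read difference.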
JMJD2A Tudor inh – inhibitors of human JMJD2A Tudor domain | actives 4.4% (n = 390,000) | AlphaScreen JMJD2A-Tudor / H3K4me3 peptide binding | Potency, µM (top dose mostly 114 µM), for inactives: at the top dose activity change, negative = inhibition, usual class: inhibitors; also: % is scaled to controls: 0 for no effect and ±100 for the full control effect; nearly all actives have a fitted effect of over 50% in size
Target sequence (O75164 whole entry, looked up, the tested form may be a part): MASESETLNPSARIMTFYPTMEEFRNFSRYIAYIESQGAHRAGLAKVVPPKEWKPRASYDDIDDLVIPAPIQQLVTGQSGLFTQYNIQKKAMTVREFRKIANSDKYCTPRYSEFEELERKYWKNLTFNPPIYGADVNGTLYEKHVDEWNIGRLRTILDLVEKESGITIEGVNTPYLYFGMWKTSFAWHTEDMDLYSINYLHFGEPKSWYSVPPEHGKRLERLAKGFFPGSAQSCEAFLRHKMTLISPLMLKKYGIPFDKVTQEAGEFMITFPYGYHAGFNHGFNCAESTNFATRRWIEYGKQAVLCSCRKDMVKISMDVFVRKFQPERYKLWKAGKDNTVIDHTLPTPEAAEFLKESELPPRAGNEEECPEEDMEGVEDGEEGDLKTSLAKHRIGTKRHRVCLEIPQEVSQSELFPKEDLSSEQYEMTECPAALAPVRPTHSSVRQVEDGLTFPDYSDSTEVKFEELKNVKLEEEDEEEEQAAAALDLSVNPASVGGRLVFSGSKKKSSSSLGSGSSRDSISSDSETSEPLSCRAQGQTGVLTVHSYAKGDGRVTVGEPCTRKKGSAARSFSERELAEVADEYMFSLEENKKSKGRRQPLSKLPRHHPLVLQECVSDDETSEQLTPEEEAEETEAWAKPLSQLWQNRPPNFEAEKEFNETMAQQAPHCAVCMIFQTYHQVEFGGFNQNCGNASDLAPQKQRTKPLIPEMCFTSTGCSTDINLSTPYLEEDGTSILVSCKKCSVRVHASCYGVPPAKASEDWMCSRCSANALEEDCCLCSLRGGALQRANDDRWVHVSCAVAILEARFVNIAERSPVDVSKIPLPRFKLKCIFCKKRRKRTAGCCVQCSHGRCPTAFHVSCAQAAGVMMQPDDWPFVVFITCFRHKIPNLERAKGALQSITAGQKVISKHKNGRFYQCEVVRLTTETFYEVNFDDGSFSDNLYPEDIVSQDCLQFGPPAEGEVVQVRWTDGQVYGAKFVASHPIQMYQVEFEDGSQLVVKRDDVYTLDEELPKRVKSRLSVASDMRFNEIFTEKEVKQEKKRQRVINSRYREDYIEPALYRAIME
BLM helicase inh – inhibitors of human Bloom syndrome helicase BLM. actives 0.2% (n = 350,000). P54132. Potency, µM (series often up to 56.1 µM), for inactives: at the highest dose activity change, negative = inhibition, actives largely listed as inhibitors. recombinant BLM DNA unwinding, fluorescence dequenching. AID 2528;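 also: plate controls were vehicle for no effect and no enzyme for full effect; nearly all actives have a fitted effect of over 35% in size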
An asterisk follows results filed as active; ? = inconclusive; / = not tested or not shown; & = joins results of further samples; [ ] = remark or other dose. Calls follow the shape of the dose curve; as a rule, active = well fitted curve in the direction sought with a large enough effect; inconclusive = small, poorly fitted or top-dose-only effect, or another doubt; inactive = no such curve, though single readings can be large; an effect the other way counts as inactive or inconclusive. Potency is read from the fitted curve at half-maximal effect. These rows are one share of the data; rates above refer to the full screens.

Labels used below: A = Pol iota inh; B = Pol eta inh; C = POLB inh; D = G9a block; E = Pol kappa inh; F = APE1 inh; G = JMJD2A Tudor inh; H = BLM helicase inh
CC1=C/C(=N\NC(=S)NCc2ccccc2)CC1
  A = 119%[activator] | B = -15% | C = 4% | D = -27% | E = 5% | F = 6% | G = ? | H = -5%
Cc1cccc(N2CCN(C(=O)CCCn3ncn4c(cc5occc54)c3=O)CC2)c1C
  A = ? | B = -18% | C = 0% | D = 7%[59 µM] | E = -9% | F = / | G = ? | H = -3%
Clc1ccc(-n2nnnc2SCc2cn3ccccc3n2)cc1
  A = 22% | B = -10% | C = 4% | D = ? | E = 0% | F = 12% | G = -3% | H = -5%
Cc1ccc(-c2nc(C#N)c(N3CCC(C)CC3)o2)cc1
  A = -10% | B = -6% | C = -2% | D = 10µM* | E = -8% | F = 16% | G = ? | H = -5%
CCN(CC)C(=O)CSc1nnc2sc3ccccc3n12
  A = 9% | B = -4% | C = 0% | D = -6%[59 µM] | E = 10% | F = 0% | G = -9% | H = -1%
CCCCCCOC(=O)C(C#N)c1nc2ccccc2nc1N1CCN(C)CC1 (stereo not given)
  A = 29% | B = ? | C = 4% | D = -25%[59 µM] | E = -3% | F = -4%&11% | G = ? | H = -2%
CCOc1ccc(-c2cc(C(=O)O)c3ccccc3n2)c(OCC)c1
  A = 9% | B = 0% | C = -20% | D = ? | E = -12% | F = 6% | G = -17% | H = -3%
O=C(O)COc1ccccc1/C=N/Nc1ccc(S(=O)(=O)N2CCOCC2)cc1[N+](=O)[O-]
  A = -6% | B = -9% | C = 3% | D = 40µM* | E = -5% | F = -9% | G = ? | H = -3%
COc1ccc(S(=O)(=O)N(CC(=O)NC2CC2)c2ccc(C)cc2)cc1OC
  A = -1% | B = -1% | C = 9% | D = -5%[59 µM] | E = 2% | F = 1% | G = -14% | H = -3%
CC(C)=NNc1nc2c(c(=O)n(C)c(=O)n2C)n1CCc1ccccc1
  A = 93%[activator] | B = -14% | C = -18% | D = ? | E = -5% | F = -12% | G = ? | H = -16%
COCCn1c(=NC(=O)CSC(C)=O)sc2cc(F)ccc21
  A = 0% | B = -4% | C = -1% | D = -44%[59 µM] | E = -5% | F = -2% | G = -7% | H = -6%
COc1ccc(OC)c(/C=N/c2c(-c3ccc(O)c(OC)c3)nc3ccccn23)c1
  A = ? | B = -4% | C = -7% | D = 22µM* | E = -3% | F = -2% | G = -24% | H = -10%
Cc1cccc(NS(=O)(=O)c2cc(C(=O)OCC(=O)Nc3cc(C)on3)ccc2C)c1
  A = -5% | B = -12% | C = -25% | D = 13%[59 µM] | E = 3% | F = -9% | G = -21% | H = -6%
CC(C)(C)C(=O)NC1(C(F)(F)F)C(=O)Nc2c1c(=O)[nH]c(=O)n2-c1ccccc1 (stereo not given)
  A = 13% | B = -3% | C = -15% | D = 7%[59 µM] | E = 1% | F = / | G = 7% | H = 1%
CCOc1cc(O)c(-c2[nH]ncc2-c2nc(C)cs2)cc1CC
  A = 0% | B = -9% | C = 24% | D = / | E = -7% | F = -7% | G = ? | H = -9%

Continuation:
Second line of a record – Pol iota inh, Pol eta inh, POLB inh, G9a block, Pol kappa inh, APE1 inh, JMJD2A Tudor inh, BLM helicase inh
C/C(=N\NC(=S)NC1CCCCC1)c1c(F)cccc1F
    34%[activator], -9%, 6%, ?, -6%, 13%, ?, -15%
O=C(NCc1cccs1)c1cnc2sccn2c1=O
    -23%, -12%, -28%, 10%[59 µM], -9%, -2%, -10%, 5%
COc1ccc(OC)c(NC(=O)/C=C/c2ccc(C)o2)c1
    -16%, -19%, 11%, ?, -21%, /, ?, -3%
O=S(=O)(Nc1ccc(-n2cccc2)cc1)c1ccccc1
    4%, 0%, 2%, -47%[59 µM], -8%, -5%, ?, -6%
CCOC(=O)C(NC(=O)c1cccc(Cl)c1)(Nc1sc2c(c1C(N)=O)CCC2)C(F)(F)F (stereo not given)
    48%, 8%, 16%, 20µM*, 3%[60.1 µM], 3%, -23%, -4%
CCOC(=O)C(NC(=O)c1ccc(F)cc1)(Nc1sc2c(c1C(N)=O)CCC2)C(F)(F)F (stereo not given)
    5%, -3%, 20%, 18µM*, -2%, 8%, -26%, -5%
COc1cccc(CNCc2cccc(Br)c2)c1OC
    118%[activator], -25%, 28%, 10µM*, -1%, 2%, ?, 3%
CCOC(=O)c1c(NC(=O)CSc2nnnn2-c2ccccc2)sc2c1CCC(C)C2 (stereo not given)
    22%, -22%, 19%, 21%[59 µM], -3%, 2%, -10%, -6%
C=CCN1C(=O)c2ccc(C(=O)N3CCC(C(N)=O)CC3)cc2C1=O
    24%, 6%, 2%, 16%, -9%, -8%, -6%, -3%
CCOc1ccc(NC(=O)c2c(Nc3ccccc3C)sc(C(=O)c3ccccc3)c2N)cc1
    -4%, -18%, -2%, 13µM*, 2%[60.1 µM], /, ?, -6%

Some of the entries above in another layout:
Molecule,Pol iota inh,Pol eta inh,POLB inh,G9a block,Pol kappa inh,APE1 inh,JMJD2A Tudor inh,BLM helicase inh
COc1ccc(OC)c(NC(=O)/C=C/c2ccc(C)o2)c1,-16%,-19%,11%,?,-21%,/,?,-3%
O=S(=O)(Nc1ccc(-n2cccc2)cc1)c1ccccc1,4%,0%,2%,-47%[59 µM],-8%,-5%,?,-6%

Part of the list above in order of SMILES length, low to high:
Second line of a record – Pol iota inh, Pol eta inh, POLB inh, G9a block, Pol kappa inh, APE1 inh, JMJD2A Tudor inh, BLM helicase inh
O=C(NCc1cccs1)c1cnc2sccn2c1=O
    -23%, -12%, -28%, 10%[59 µM], -9%, -2%, -10%, 5%
COc1ccc(OC)c(NC(=O)/C=C/c2ccc(C)o2)c1
    -16%, -19%, 11%, ?, -21%, /, ?, -3%
C=CCN1C(=O)c2ccc(C(=O)N3CCC(C(N)=O)CC3)cc2C1=O
    24%, 6%, 2%, 16%, -9%, -8%, -6%, -3%
CCOC(=O)C(NC(=O)c1ccc(F)cc1)(Nc1sc2c(c1C(N)=O)CCC2)C(F)(F)F (stereo not given)
    5%, -3%, 20%, 18µM*, -2%, 8%, -26%, -5%

(list continues)
Second line of a record – Pol iota inh, Pol eta inh, POLB inh, G9a block, Pol kappa inh, APE1 inh, JMJD2A Tudor inh, BLM helicase inh
Cc1ccc(C(=O)Nn2cnnc2)cc1
    -2%, -18%, 18%, ?, 8%[60.1 µM], -2%, 9%, -2%
COc1ccc(NC(=O)CSc2nccn2Cc2ccc(F)cc2)c(OC)c1
    21%, -17%, -1%, /, -12%, 1%, -34%, 1%
CC(Nc1cc(N2CCCC2)ccc1[N+](=O)[O-])c1ccccc1 (stereo not given)
    20%, -20%, 11%, ?, -1%, 5%, ?, 0%
CCCCC(=O)NC(Nc1sc2c(c1C(N)=O)CCCC2)(C(=O)OCC)C(F)(F)F (stereo not given)
    12%, -11%, -1%, 50µM*, -18%, 2%, -10%, 2%

Taken from above.
COCCn1c(=NC(=O)CSC(C)=O)sc2cc(F)ccc21 | Pol eta inh: -4%
O=C(NCc1cccs1)c1cnc2sccn2c1=O | Pol iota inh: -23%
